# Screening data as filed in PubChem.
# VDR inh: vitamin D3 receptor (human) inhibition; P11473; VDR-SRC2-3 peptide fluorescence polarization, 2 h; Potency, µM, for the others: max response, negative = inhibition, usual class: inhibitors; actives 0.93% (n = 400,000); active = well fitted inhibition curve with a large enough effect; inconclusive = small, poorly fitted or top-dose-only effect, or another doubt; inactive = no such curve, though single readings can be large or run the other way; note: series mostly up to about 120 µM
# Target sequence (P11473 whole entry, looked up): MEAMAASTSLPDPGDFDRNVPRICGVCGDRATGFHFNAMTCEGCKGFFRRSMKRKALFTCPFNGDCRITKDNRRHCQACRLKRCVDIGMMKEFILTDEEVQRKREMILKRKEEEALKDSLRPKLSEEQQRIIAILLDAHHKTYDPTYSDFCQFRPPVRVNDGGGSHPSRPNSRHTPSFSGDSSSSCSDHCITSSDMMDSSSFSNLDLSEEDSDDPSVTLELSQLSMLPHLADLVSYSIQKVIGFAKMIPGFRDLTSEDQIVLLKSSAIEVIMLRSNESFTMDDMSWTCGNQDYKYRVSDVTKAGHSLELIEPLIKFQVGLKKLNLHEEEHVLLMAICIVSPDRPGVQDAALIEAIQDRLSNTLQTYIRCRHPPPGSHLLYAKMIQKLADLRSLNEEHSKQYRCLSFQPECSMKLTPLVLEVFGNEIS
#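 The screen uses fluorescence polarization to detect compounds that interfere with recruitment of the SRC2-3 coactivator peptide to VDR; plates are read after 2 h at room temperature.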
# Numbers without * were called inactive; ? = inconclusive; & = joins results of further samples. % is set by controls: 0 for no effect and ±100 for the full control effect; potency is the fitted concentration of half-maximal effect.
SMILES,VDR inh
Cc1cc(N2C(=O)C(O)=C(C(=O)c3cccs3)C2c2ccc(F)cc2)no1 (configuration not stated),-18%
CCn1c(O)c2ccc(C(=O)N=NC(=O)c3ccccc3)cc2c1O,-2%
COc1cc2c(cc1OC)CN(C(=O)CCC(=O)c1ccc(F)cc1)CC2,-13%
CCOc1ccccc1NC(=O)[C@@H](NC(=O)c1ccccc1F)C(C)C,-5%
COc1ccccc1NC(=O)CSc1oc(-c2ccco2)nc1S(=O)(=O)c1ccc(C)cc1,1%
CCc1ccccc1N(CC)C(=O)c1cn(CC)c(=O)c2cc(OC)c(OC)cc12,-16%
CC(NC(=O)CSc1cccc(C(F)(F)F)c1)c1ccccc1 (configuration not stated),-7%
COc1ccc(-c2nnn(CC(=O)N(CCCN3CCOCC3)C(C(=O)NC3CCCC3)c3ccco3)n2)cc1 (configuration not stated),-12%
COCC(C)NC(=O)CSc1nc2nn(-c3ccccc3)c(=O)c-2c2n1CCCCC2 (configuration not stated),-9%
CS(=O)(=O)N1CCN(CC2CC3C=CC2C3)CC1 (configuration not stated),8%
CCOC(=O)c1cc(C(=O)OCC)c(=O)[nH]c1N1CCCCC1,-18%
O=C(NCc1ccco1)c1cc(S(=O)(=O)N2CCCC2)ccc1Cl,18%
O=C(Nc1ccc(CN2CCOCC2)cc1)c1ccc(Br)cc1,-9%
Cc1cc(C)cc(NC(=S)/C(=C(\[O-])c2ccc(Cl)cc2Cl)[n+]2ccccc2)c1,-14%
Cc1ccc(Nc2nc(N)nc(CN3CCN(c4ccccc4F)CC3)n2)cc1,21%
Cc1cc(C)n2cc(CSC3=NCCS3)nc2n1,1%
O=C(NCc1ccccc1)C1Nc2ccc(OC(F)(F)F)cc2C2C=CCC12 (configuration not stated),-18%
Cc1ccc2nc(-c3cc(NC(=O)COc4ccc(C)c(C)c4)ccc3Cl)oc2c1,-15%
Cc1ccc(NC(=O)Cn2nnc(C(=O)NCCc3ccccc3)c2N)cc1Cl,18%&6%
COc1ccc(N(Cc2cccs2)C(=O)Nc2ccccc2)cc1,5%
Cc1ccc(C(=O)Nc2ccc(C(=O)OCc3cc(=O)n4c5c(sc4n3)CCCC5)cc2)cc1,15%
C=CCc1ccccc1OCC(O)CN(C(C)C)C(C)C (configuration not stated),-2%
Cc1ccc(N2CC(C(=O)OCC(=O)c3ccc([N+](=O)[O-])cc3)CC2=O)cc1 (configuration not stated),-10%
CC1(C)Cc2c(C#N)c(NCCN3CCOCC3)nc(-c3ccco3)c2CO1,-20%
S=c1nc(-c2ccc(Br)cc2)[nH]c2ccccc12,?
Cc1cccc(C)c1-n1c(C)nn(Cc2ccc([N+](=O)[O-])cc2)c1=O,0%
CCOC(=O)Cc1c(C)nc2c(-c3cccc(Br)c3)cnn2c1C,6%
CCn1cc(C(=O)N2CCN(C(=O)c3ccco3)CC2)c2cc(OC)c(OC)cc2c1=O,0%
O=c1/c(=C/c2ccco2)sc2nc(-c3ccccc3Br)nn12,10%
c1cncc(CSc2nnc3ccc(-c4cccs4)nn23)c1,-11%
COc1ccc(Cl)cc1NC(=O)CN(C)C(=O)Cn1c(=O)oc2ccccc21,-14%
CCC(C(=O)N(C)Cc1ccccc1)n1nc(C)c2sc3ccccc3c2c1=O (configuration not stated),3%
CC(=O)c1cnc(-c2ccccc2Cl)s1,1%
Cn1c(=O)c2c(ncn2CC(O)CNc2ccc(Br)cc2)n(C)c1=O (configuration not stated),20%
CCCCCCCCCCCCC/C=C/[C@@H](O)[C@H](CO)NC(=O)CCCCCCCCCCCCCCC,-6%&-19%
Cc1cc(C)c(-c2cc(NC(=O)COC(=O)c3ccc(CO)cc3)n(-c3ccccc3)n2)cc1C,-2%

# Brought forward from above: 2 compounds, then new ones.
SMILES,VDR inh
CCCCCCCCCCCCC/C=C/[C@@H](O)[C@H](CO)NC(=O)CCCCCCCCCCCCCCC,-6%&-19%
Cc1cc(C)c(-c2cc(NC(=O)COC(=O)c3ccc(CO)cc3)n(-c3ccccc3)n2)cc1C,-2%
N#Cc1ccc(OCC(=O)OCC(=O)NC2CC2)cc1,5%
CCOC(=O)c1cc(-c2ccccc2)n(-c2cccc(C(=O)Nc3cc(OC)cc(OC)c3)c2)c1C,12%
CCOC(=O)c1ccccc1NC(=O)Cn1cnc2c(cnn2-c2ccc(OC)cc2)c1=O,-3%
CN(C)S(=O)(=O)c1ccc(C(=O)Nc2cc(=O)n(C)c(=O)n2C)cc1,-3%
CCOc1ccc(S(=O)(=O)Nc2ccccc2C(=O)N2CCCC2)cc1,5%
Cc1ccc(/C=C/C(=O)c2c(C)nc3ccccn23)cc1,-13%
CN(C(=O)c1cccc(NC(=O)Cc2ccc(NC(=O)C3CCCN(S(=O)(=O)c4cccc([N+](=O)[O-])c4)C3)cc2)c1)C1CCC1 (configuration not stated),-6%
COc1ccc(NC(=O)C2CCOC(C)(C)C2)cc1 (configuration not stated),0%
CCC(C)[C@H](NC(=O)Nc1cccc(OC)c1)C(=O)OC (some centres not stated),-2%
COc1ccc(-c2oc3ccccc3c2C(=O)Oc2ccccc2)cc1,9%
COc1ccc(-c2c[n+](CC(=O)c3ccccc3)c3n2CCCCC3)cc1,-6%
CC(=O)Nc1ccc2c(c1)C(=O)N(c1cccc(C)c1)C2=O,3%
Cc1ccc(C)c(Nc2c([N+](=O)[O-])cc(C(=O)N3CC(=O)Nc4ccccc43)cc2[N+](=O)[O-])c1,6%
C[C@H](CO)N1C[C@H](C)[C@@H](CN(C)C(=O)Nc2ccc3c(c2)OCO3)Oc2c(NC(=O)Nc3ccc(C(F)(F)F)cc3)cccc2C1=O,-16%
N#Cc1nc(-c2ccccc2)oc1NCCCn1ccnc1,3%
COc1ccc(C(=O)Nc2ccc3nc(N4CCC(C)CC4)cc(C)c3c2)cc1,-5%
COC(=O)c1c(NC(=O)CCCOc2cccc(C)c2)sc2c1C(C(=O)OC)CC2 (configuration not stated),?
O=C(CCS(=O)(=O)c1cc2c3c(c1)CCN3C(=O)CC2)NCc1ccc(F)cc1,-1%
Cc1ccc(OCC(=O)Nc2cc(-c3cccc(C)c3)nn2-c2ccccc2)cc1,15%
CC(C)C12CN3CC(C(C)C)(CN(C1)C3c1ccc3c(c1)OCO3)C2=O (configuration not stated),10%
CN(C)S(=O)(=O)c1ccc(N2CCCC2)c(C(=O)OCC(=O)NC2CCCCC2)c1,-8%
COc1ccc(-c2nnc(SCC(=O)NCc3ccccc3)nc2-c2ccc(OC)c(OC)c2)cc1OC,-3%
CN(C)c1ccc(-c2cc(NCc3cccnc3)ncn2)cc1,-3%
C/C(CC(=O)Nc1ccc(Cl)cc1)=N\NC(=O)C(=O)NCCO,-3%

# Six of the compounds above, with tabs:
structure	VDR inh
O=C(NCc1ccccc1)C1Nc2ccc(OC(F)(F)F)cc2C2C=CCC12 (configuration not stated)	-18%
Cc1ccc2nc(-c3cc(NC(=O)COc4ccc(C)c(C)c4)ccc3Cl)oc2c1	-15%
Cc1ccc(NC(=O)Cn2nnc(C(=O)NCCc3ccccc3)c2N)cc1Cl	18%&6%
COc1ccc(N(Cc2cccs2)C(=O)Nc2ccccc2)cc1	5%
Cc1ccc(C(=O)Nc2ccc(C(=O)OCc3cc(=O)n4c5c(sc4n3)CCCC5)cc2)cc1	15%
C=CCc1ccccc1OCC(O)CN(C(C)C)C(C)C (configuration not stated)	-2%

# (continued)
SMILES,VDR inh
O=C(CSc1nc(C(F)(F)F)cc(=O)[nH]1)N1CCOCC1,-10%
COC(CNC(=O)c1ccc(-n2c(=S)[nH]c3ccccc3c2=O)cc1)OC,-4%
CCC(C(=O)OCC(=O)Nc1ccccc1-c1ccccc1)c1ccccc1 (configuration not stated),-11%
COc1ccc(C)cc1NC(=O)CO/N=C(\N)CC(=O)NC1CCCCC1,-7%
O=C(Nc1ccccc1N1CCN(c2ccccc2)CC1)c1cccc(F)c1,-8%
CCN1CCc2c(sc(NC(=O)CN3C(=O)c4ccccc4C3=O)c2C(N)=O)C1,-7%
C/C(O)=C(\N=Nc1cc(C)ccc1O)C(N)=O,-3%
COC(OC)c1ccc(C#N)c(=O)[nH]1,26%
CCOc1ccc(S(=O)(=O)N(CC(=O)NCC(F)(F)F)Cc2ccco2)cc1,10%
NS(=O)(=O)c1ccc(CNC(=O)/C=C/c2cccc(Cl)c2)cc1,6%
Cc1ccc(NC(=S)N2CCN(S(=O)(=O)c3ccc(F)cc3)CC2)cc1,-2%
CCC(=O)c1ccc(OCC(=O)OCC(=O)N2c3ccccc3NC(=O)C2(C)C)cc1,19%
c1ccc(-n2ncc3c(NC4CCCC4)ncnc32)cc1,13%
Cc1ccc(C)c(NC(=S)N2CCN(c3ccccn3)CC2)c1,-13%
COc1cc(/C=N/NC(=O)c2cccnc2)cc2c1OCO2,-2%
COc1ccc(OCCCC(=O)Nc2cc(Cl)ccc2-n2cncn2)cc1,-9%
Cc1ccc(C(=O)COc2ncnc3cc(Cl)ccc23)cc1,-5%
CCOc1ccccc1N1CC(C(=O)NC2CCCCCC2)CC1=O (configuration not stated),2%
Cc1ccc(N(CCC(=O)O)S(=O)(=O)c2ccc(C)cc2)cc1,-2%
N#C/C(=C1/CCCCCN1)c1nnc2n1CCCCC2,-5%
Cc1c(NC(=O)c2ccc(S(=O)(=O)N3CCOCC3)cc2)cccc1[N+](=O)[O-],13%
CCCS(=O)(=O)c1c(S(=O)(=O)CCC)c2c(C)cccn2c1C(=O)OC,-1%
Cc1nc2ccccc2n1CC(=O)OCC(=O)NCc1ccccc1,-11%
COc1ccc(CN(C)C(C)C(=O)NC2CCCc3ccccc32)cc1 (configuration not stated),11%
COc1ccccc1OCc1ccc(C(=O)Nc2ccncc2)o1,8%
Cc1ccc(C)c(S(=O)(=O)N2CCN(C(=O)c3sccc3C)CC2)c1,0%
CC(=O)Oc1ccc(C2(C)CC(C)(C)Oc3cc(OC(C)=O)ccc32)c(OC(C)=O)c1 (configuration not stated),-12%
CC(=O)N1CC(=O)N(CC(=O)Nc2ccc(Br)cc2)C1=S,4%
CCOC(=O)N1CCN(CCC(=O)Nc2ccc(F)c(F)c2)CC1,-9%
O=C(CC1CCCCC1)NCCS(=O)(=O)N1CCN(c2ccccc2)CC1,-3%
COC(=O)CCCC1=CC2=C(c3ccccc3)C(=O)C(C)(OC(=O)C3CCCC3)C(=O)C2=CN1CCc1c[nH]c2ccccc12 (configuration not stated),-15%
COc1cc(SC)ccc1C(=O)Nc1ccc(Cl)cn1,-20%
C#CCOCCOCCOCCNc1nc(N2CCOCC2)nc(N2CCN(C(=O)[C@H](CCC(=O)O)n3cc(C(N)[C@H](C)CC)nn3)CC2)n1 (some centres not stated),8%
CNCC[C@H](Oc1ccccc1OC)c1ccccc1,5%
O=C1COc2ccc(C(=O)/C=C/c3ccccc3)cc2N1,-29%
CCOC(=O)C1(Cc2ccc(OC)cc2)CCN(C(=O)c2ccoc2C)CC1,-28%

# Sorted by the number under VDR inh (ascending): three of the compounds above
SMILES,VDR inh
COc1ccc(C(=O)Nc2ccc3nc(N4CCC(C)CC4)cc(C)c3c2)cc1,-5%
C=CCc1ccccc1OCC(O)CN(C(C)C)C(C)C (configuration not stated),-2%
O=c1/c(=C/c2ccco2)sc2nc(-c3ccccc3Br)nn12,10%

# Of the compounds above, these contain a COOH group:
SMILES,VDR inh
Cc1ccc(N(CCC(=O)O)S(=O)(=O)c2ccc(C)cc2)cc1,-2%
C#CCOCCOCCOCCNc1nc(N2CCOCC2)nc(N2CCN(C(=O)[C@H](CCC(=O)O)n3cc(C(N)[C@H](C)CC)nn3)CC2)n1 (some centres not stated),8%

# Further entries.
SMILES,VDR inh
CC(NS(=O)(=O)c1ccc(Cl)cc1)C(=O)OCC(=O)c1ccc[nH]1 (configuration not stated),17%
COc1cc(Cl)c(C)cc1NC(=O)CSC,10%
Cc1ccc(Cn2ncc3c(N4CCN(C)CC4)ncnc32)cc1,-3%
Cc1cc(C)c2cc(CN(CCO)C(=O)Nc3ccc(Cl)cc3)c(=O)[nH]c2c1,4%
CCN(CC)S(=O)(=O)c1ccc2c(c1)nc(CN(C)C(=O)Nc1cccc(Cl)c1)n2C,3%
CC(=O)c1c(C)oc2ccc(N(C(=O)Oc3ccccc3)S(=O)(=O)c3ccccc3)cc12,-15%
CC(C)c1nnc(NC(=O)CSc2nc3ccccc3[nH]2)s1,2%
OC(c1ccc(Cl)cc1)c1nccc2ccccc12 (configuration not stated),-25%
Cc1cc(C)n(CCNC(=O)CC2C(=O)NCCN2CC2CCCCC2)n1 (configuration not stated),-5%
Cc1onc(-c2ccccc2Cl)c1C(=O)N1CCN(S(=O)(=O)c2ccc(F)c(F)c2)CC1,-6%
O=S(=O)(Cc1ccccc1)N1CCCC1,-19%
CCOC(=O)CSc1nnc(CNC(=O)c2cc(OC)c(OC)c(OC)c2)n1C,-14%
Cc1ccc(C)c(Cn2c3ccccc3c3cnn(CC(=O)NCCN4CCOCC4)c(=O)c32)c1,-8%
O=C(CSC1=NS(=O)(=O)c2ccccc2N1)Nc1ccccc1F,-15%
COc1ccc(C)cc1NC(=O)Nc1cccc(-c2noc(C)n2)c1,6%
COC1CCCCC1Nc1cc(C)cc(C)c1 (configuration not stated),-5%
COc1ccc(CNC(=O)CN(C(=O)c2csnn2)c2cccc(F)c2)cc1,-21%
C=CCOc1c(CNc2ccc(S(N)(=O)=O)cc2)cccc1OC,-12%
Cc1ccc(C(=O)N/C(=C/c2cccs2)C(=O)N2CCCCCC2)cc1,10%
CC1CC(=O)Nc2ccccc2N1S(=O)(=O)c1cccc(F)c1 (configuration not stated),-17%
O=C(c1ccco1)N1CCN(c2ccc([N+](=O)[O-])cn2)CC1,-9%
O=C(NCC(c1cccnc1)N1CCN(c2ccc(F)cc2)CC1)c1ccc(F)cc1 (configuration not stated),-7%
O=C(NCc1ccccc1)c1ncn[nH]1,-9%
COc1cccc(CNC(=O)c2nn(-c3ccccc3Cl)nc2CO)c1,0%
CCn1c(SCC(=O)Nc2cc(NC(C)=O)ccc2OC)nnc1-c1ccccn1,5%
COC(=O)c1c(NC(=O)c2ccc(OC)cc2OC)sc2c1CCCCC2,-14%
O=C(CSc1nc2ccccc2n1-c1ccccc1)Nc1ncc(Cl)cc1Cl,-17%
CCOc1cc(C(=O)Nc2cccc3ncccc23)cc(OCC)c1OCC,-7%

# A portion of the library; rates above refer to the full screens.
